AID504770: E. coli YBA685 growth inhibition, screen for V. cholerae RctB inhibitors | E. coli YBA685 rctB-dependent plasmid, OD600 growth, 3 h; active compounds read low | z-score (test concentration not listed) | 0.27% of 130,000 active | AID 504770;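 active = z-score under -2 on both plates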;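 note: wells of about 30 µL received 100 nL stock; score is relative to mean and SD of the test wells; the first replicate is given; strong numbers were not always called active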
Ba CapD inh: CapD enzyme inhibition; purified CapD enzyme, fluorescence intensity read-out; active compounds read low; some hits fall short of the stated cut; z-score (no concentration beside the values); 0.23% of 140,000 active;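 active = z-score under -4 in either of two replicates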;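 note: stock transfer was 100 nL into about 40 µL; score is relative to mean and spread of the plate; one replicate is shown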
* marks the source's active call; other numbers are inactive results; / = not tested or not shown. Not all compounds are listed; the hit share may differ from the screen's.

The line under a structure holds: AID504770 | Ba CapD inh
> CCC(C(=O)Nc1cccc(C)c1C)n1nc(C)c2sc3ccccc3c2c1=O (stereo not given)
→ -0.35 | -1.2
> CCSc1nnc(NC(=O)C2Cc3ccc(C)cc3C(=O)O2)s1 (stereo not given)
→ 0.1 | -0.44
> Cc1cc(-c2csc(N)n2)ccc1Cl
→ / | 1.3
> O=C(O)/C=C/c1cccc(Oc2ccccc2)c1
→ 0.3 | -0.92
> CN(NC=C(C#N)C#N)c1cccc(F)c1C#N
→ -0.3 | -2
> O=C(CSc1nc2ccccc2o1)N1CCc2ccccc21
→ / | 0.67
> N=c1oc2cc(O)ccc2cc1C(=O)Nc1ccc(F)cc1
→ -0.7 | 0.96
> Cc1nn(CCCC(=O)NC2CC2)c(=O)c2cc3sccc3n12
→ -0.5 | -0.85
> CCS(=O)(=O)N1Cc2ccccc2CC1C(=O)N1CCN(c2ccccc2)CC1 (stereo not given)
→ -0.65 | /
> Cc1cc(C)cc(NC(=O)NCC(O)c2ccccc2)c1 (stereo not given)
→ -0.25 | -0.72
> NNc1ccc(C(=O)O)cc1
→ -1.2 | /
> O=C(Nc1nncs1)c1cccc(Cl)c1
→ -0.6 | /
> CCOc1ccc2nc(SCC(=O)Nc3cc(S(N)(=O)=O)ccc3C)sc2c1
→ / | 0.28
> O=C(NCc1ccco1)c1noc2c1CCCC2
→ -0.65 | -0.21
> Cc1ccc(C(=O)Oc2ccc(-c3nccc(-c4ccccn4)n3)cc2)cc1
→ / | 0.14
> CCC(CC)c1nc(Nc2ccccc2)c2ccccc2n1
→ 0.45 | -0.38
> COc1ccc(S(=O)(=O)NCC(F)(F)F)cc1Br
→ -0.35 | /
> COc1ccc(Cl)cc1C(=O)Nc1ccc(Cl)c(-c2nc3c(ccc4ccccc43)o2)c1
→ / | 3.1
> COc1ccccc1N1CCN(c2ncnc3sc(C(=O)N4CCCC4)c(C)c23)CC1
→ / | -0.04
> CCN(C(=O)c1cnccc1C(F)(F)F)c1nc2cc(Cl)ccc2s1
→ -0.4 | 0.33

Whole records as entered above. Screens in order: AID504770, Ba CapD inh
CN(NC=C(C#N)C#N)c1cccc(F)c1C#N as listed: -0.3, -2
O=C(NCc1ccco1)c1noc2c1CCCC2 as listed: -0.65, -0.21
O=C(Nc1nncs1)c1cccc(Cl)c1 as listed: -0.6, /
CCN(C(=O)c1cnccc1C(F)(F)F)c1nc2cc(Cl)ccc2s1 as listed: -0.4, 0.33
N=c1oc2cc(O)ccc2cc1C(=O)Nc1ccc(F)cc1 as listed: -0.7, 0.96

Next structures follow:
The line under a structure holds: AID504770 | Ba CapD inh
> CN(Cc1ccccc1)C(=O)c1cc2c(=O)[nH]c3ccccc3c2s1
→ -0.25 | -0.23
> O=C(O/N=C1\CCCc2[nH]c3ccccc3c21)c1cccc(C(F)(F)F)c1
→ / | -0.11
> CC(C)(C)P(=Nc1ccc(S(N)(=O)=O)cc1)(N1CCOCC1)N1CCOCC1
→ -0.05 | /
> CC1(C)Cc2c(sc3nc(=O)n(Cc4ccco4)c(N)c23)CO1
→ -0.75 | -0.12
> CC(=O)Nc1ccc(SCC(=O)N2CC(C)CC(C)C2)cc1 (stereo not given)
→ -0.65 | /
> O=C(Nn1c(=S)[nH]c2ccccc2c1=O)c1cccnc1
→ / | 0.64
> COc1ccc(-c2onc(C)c2C)cc1S(=O)(=O)N(C)C(C)CCc1ccco1 (stereo not given)
→ -0.1 | -1
> CC(C)Cc1cc(C(=O)Nc2cnn(Cc3ccc(F)cc3)c2)no1
→ -0.65 | 0.53
> COC(=O)Cn1cc(C(=O)c2ccccc2)c2ccccc21
→ -0.25 | -2.2
> COc1ccc(C(=O)NCc2nc3ccccc3[nH]2)cc1
→ 0.5 | -2.3
> O=C(Cn1nnc(N2CCCCC2)n1)c1ccccc1
→ / | 0.39
> O=C(O)c1c[nH]c2ccc(S(=O)(=O)NC3CCCCNC3=O)cc2c1=O (stereo not given)
→ / | 0.43
> O=C(CONC1=NCCCCC1)Nc1ccc(OC(F)(F)F)cc1
→ 0.75 | /
> NC(=O)CSc1nnc(COc2ccccc2Cl)n1C1CC1
→ -0.5 | /
> Cc1ccc(NC(=O)c2oc3ccccc3c2C)cc1
→ 1 | /
> Cc1nc2ncccc2cc1C(=O)NCc1cccc(C(F)(F)F)c1
→ / | -0.3
> O=C(Nc1ccccc1)c1cccc(S(=O)(=O)NCC23CC4CC(CC(C4)C2)C3)c1
→ 0.15 | 0.035
> CCCc1cc(=O)c2c(O)ccc(OC)c2o1
→ -0.45 | -0.68
> CCOc1ccc(NC(=O)c2c(NC(C)=O)sc3c2CCC3)cc1
→ / | -0.34
> O=C1CC(c2cccc(Cl)c2Cl)c2c(ccc3ccccc23)N1 (stereo not given)
→ / | 11
> CS(=O)(=O)c1ccc(Br)cc1
→ -0.65 | -0.055
> CCOC(=O)c1cnc(-c2ccccc2)nc1Oc1ccc(Cl)cc1
→ / | -0.11
> COC(=O)C1(OC)C(C(=O)c2ccc(C)cc2)=C(OC(c2ccccc2)c2ccccc2)C(=O)N1c1ccccc1 (stereo not given)
→ / | -0.56
> CCOC(=O)c1c(-c2ccc(F)cc2)csc1N
→ / | -0.51
> O=C1/C(=C/c2ccc(Br)cc2)C=C(c2ccccc2)N1c1ccc2ncccc2c1
→ / | 0.22
> O=C(OCC(=O)c1ccco1)c1ccc(S(=O)(=O)NCc2ccco2)cc1
→ 0.6 | /
> CCCNC(=O)CCc1c(C)nc2cc(-c3ccccc3)nn2c1C
→ -0.1 | -0.61
> CCCS(=O)(=O)c1c(S(=O)(=O)CCC)c2c3ccccc3ccn2c1C(=O)c1ccc(Br)cc1
→ / | -0.15
> CC(C)(C)OC(=O)N1CCC(c2cc(=O)n3[nH]cc(C(=O)NC4CCCC4)c3n2)CC1
→ 0.3 | -0.19
> CC(=O)NC1CCN(S(=O)(=O)c2cc(Cl)c(Cl)s2)C1 (stereo not given)
→ / | -0.11
> CCOCCSc1nc(=O)n2cc(C)ccc2n1
→ -0.55 | /
> CC1=CC(C)C2(CO)COC(c3ccc(N(C)C)cc3)C1C2C (stereo not given)
→ / | -0.26
> CCOc1cc(C(=O)N2CCN=C2SC)cc(OCC)c1OCC
→ -0.3 | /
> COc1ccc(C(=O)Nc2ccc(S(=O)(=O)N3CCCCC3c3cccnc3)cc2)cc1 (stereo not given)
→ / | 0.095
> COc1cccc(OC)c1C(=O)NC(=S)Nc1ccc2[nH]c(=O)[nH]c2c1
→ -0.75 | -0.62
> Cc1ccc(C(=O)COC(=O)C(Cc2c[nH]c3ccccc23)NC(=O)c2ccco2)cc1 (stereo not given)
→ / | -1
> CCn1cc(CNC(=S)Nc2cccc(Cl)c2C)cn1
→ 0.4 | -0.09
> Cc1ccc(CN(C)C(=O)COc2ccccc2C#N)o1
→ -0.15 | /
> COc1ccc(Cn2c(=S)[nH]c3cc(C(=O)NCCSCc4ccccc4)ccc3c2=O)cc1
→ / | -0.28
> N#CC(C#N)=CNc1ccc(S(=O)(=O)c2ccc(NC=C(C#N)C#N)cc2)cc1
→ -0.7 | -0.15

Remaining list, next part.
Compound,AID504770,Ba CapD inh
COC(=O)C1=C(C)n2nnnc2NC1c1ccc(Cl)cc1 (stereo not given),0.25,-0.52
CCN(CC)CCc1c(C)c2ccc(O)cc2oc1=O,1.2,47
COC(=O)c1cc(Cn2cc(C(F)(F)F)cc(Cl)c2=O)oc1C,0.1,/
Cc1ccc(-c2csc(-c3ccno3)n2)cc1,-0.85,9.9
O=S(=O)(NC1Cc2ccccc2C1)c1ccc(Cl)s1,/,-0.4
COc1cc(CCNC(=O)OCCc2ccccc2Cl)cc(OC)c1,/,-0.3
O=C(O)C1C2CCC(C2)C1C(=O)NCCCN1CCCC1=O (stereo not given),-0.85,-0.67
O=S(=O)(Nc1ccc(N2CCCCC2)cc1)c1ccc(-c2cc(C(F)(F)F)on2)s1,-0.3,-0.21
CCOC(=O)C1=C(C)NC2=C(C(=O)C(C(=O)OCC)C(c3cccc(OC)c3)C2)C1c1ccc(N(C)C)cc1 (stereo not given),/,-0.3
O=C(NCc1ccccc1)C(C(=O)c1ccccc1)n1ccccc1=O (stereo not given),-0.5,-0.98
CC(=O)Nc1cccc(-c2nnc(-c3cccc(C)c3)o2)c1,-0.8,1.4
CC1CCCCN1C(=O)Cn1ncc2c1-c1ccccc1OC2 (stereo not given),-1.1,-4*
O=C(OCCN=C1NS(=O)(=O)c2ccccc21)c1ccccc1,-0.25,0.33
O=c1c2ccccc2ncn1CN1CC=C(c2ccccc2)CC1,-0.35,/
Cc1ccccc1NC(=O)c1cc(=O)[nH]c2ccccc12,1.9,0.91
CCN(Cc1ccncc1)C(=O)c1cc2ccccc2oc1=O,-0.25,3.9
Clc1cc(Cl)c2nc(Oc3cccc(N4CCOCC4)c3)sc2c1,0.6,-1.9
CCc1ccc2[nH]c3nc(SCC(=O)OC(C)C)nnc3c2c1,1.1,/
O=C(N1CCOCC1)N1CCc2ccccc21,-1.6,/
O=C1C2=C(C(=O)c3ccccc31)C(c1ccccc1O)c1sc(=O)[nH]c1S2 (stereo not given),1,/

4 entries from above, set out differently:
> CCc1ccc2[nH]c3nc(SCC(=O)OC(C)C)nnc3c2c1
  AID504770: 1.1
  Ba CapD inh: /
> O=c1c2ccccc2ncn1CN1CC=C(c2ccccc2)CC1
  AID504770: -0.35
  Ba CapD inh: /
> Cc1ccccc1NC(=O)c1cc(=O)[nH]c2ccccc12
  AID504770: 1.9
  Ba CapD inh: 0.91
> O=C(N1CCOCC1)N1CCc2ccccc21
  AID504770: -1.6
  Ba CapD inh: /

Continuation:
Compound,AID504770,Ba CapD inh
O=C(NCC1CCCO1)c1cn2c(n1)sc1ccccc12 (stereo not given),/,0.19
CCOC(=O)N1CCN(C(=O)CSc2c3c(nc4ccccc24)CCCC3)CC1,0.7,-0.4
c1ccc(OCc2nc3c4c(-c5ccccc5)c(-c5ccccc5)oc4ncn3n2)cc1,/,0.33
Cc1onc(-c2ccccc2Cl)c1C(=O)NCC1COc2ccccc2O1 (stereo not given),0.15,-0.35
COc1ccc(C2CC(=O)C3=C(C2)Nc2ccccc2NC3c2ccc(OC(C)=O)c(OC)c2)cc1 (stereo not given),/,-0.85
CCN(CC)c1ccc(/C=c2\sc3nc4cc(Br)cnc4n3c2=O)cc1,/,0.3
CCCC1=NC(C)(C)Cc2cc(OC)c(OC)cc21,/,18
O=C(OCc1ccco1)c1cc2ccccc2oc1=O,-0.35,/
O=C(CCNS(=O)(=O)c1ccc2c(c1)OCCO2)NC1CCN(Cc2ccccc2)CC1,0.25,/
CCc1ccc(-c2ccc(C(=O)NC(C)c3cccc4c3OCCO4)cc2)cc1 (stereo not given),/,0.17
CN1C(=O)/C(=C2\SC(N3CCOCC3)=NC2=O)c2ccccc21,0,0.68
CC(C)NC(=O)CSc1nnc(Cc2ccccc2)n1Cc1ccco1,-0.7,/
O=C1CCCC2=C1C(c1cccs1)Nc1ccc3ncccc3c12 (stereo not given),/,6.3
CC1(C)COC(CC(=O)c2ccc(Cl)cc2)=N1,-0.4,/
COc1ccc(C2(O)CN(c3ccc(C)cc3)C3=[N+]2CCCC3)cc1OC (stereo not given),/,0.36
CCC(=O)N1c2ccc(S(=O)(=O)CCC(=O)Nc3cccc(-c4ccno4)c3)cc2CC1C (stereo not given),-0.25,0.36
COC(=O)c1cccc(N2C(=O)/C(=C/c3ccc(Br)cc3)C=C2c2ccccc2)c1,/,-0.46
Cc1nc(S(=O)(=O)N(C)c2ccccc2)c(C#N)c(C)c1Cl,-0.4,0.42
CCCCN1C(=O)c2ccc(C(=O)Nc3ccc(S(=O)(=O)N(C)C)cc3)cc2C1=O,-0.65,/
COC(=O)c1ncccc1OCc1cc2cccc3c2n(c1=O)CCC3,/,0.35
CC1CCCC(Nc2c(-c3ccc(Cl)cc3)nc3c(C#N)c[nH]n23)C1C (stereo not given),1.1,0.32
CN(C)C(=S)NCCC1=CCCCC1,-0.35,0.71
CCOC(=O)c1ccc(N2C(=O)C(=O)/C(=C(\O)c3ccc(OC)cc3)C2c2ccc(Br)cc2)cc1 (stereo not given),/,1.9
Cc1c(Cc2ccccc2)c(NC2CCCCC2)n2c(nc3ccccc32)c1C#N,/,-0.14
CC1CC(=O)c2cc(Cl)ccc2S1(=O)=O (stereo not given),/,-0.04
CCOC(=O)C1=C(O)/C(=C/c2ccco2)SC1=Nc1cccc(Cl)c1,0.25,-1.2
CCOC(=O)c1sc2nc(CSc3nc(C)cc(=O)[nH]3)cc(=O)n2c1C,-0.2,0.61
O=S(=O)(c1ccc(Cl)cc1)c1cc(C(F)(F)F)cc(C(F)(F)F)c1,/,0.01
O=C(O)c1csc(-c2ccccc2)n1,-0.4,/
Cn1cccc1CNCCc1ccccc1,-1,/
CC1Oc2ccccc2C=C1/C=C(\C#N)C(=O)N1CCCCC1 (stereo not given),0.3,/
CN(C)CCCN(S(=O)(=O)c1cc(C(F)(F)F)cc(C(F)(F)F)c1)S(=O)(=O)c1cc(C(F)(F)F)cc(C(F)(F)F)c1,/,0.75
Cc1c(F)cccc1NS(=O)(=O)c1ccc2c(c1)CCN2S(C)(=O)=O,-0.5,/
NS(=O)(=O)c1ccc(-n2c(-c3ccccc3)c3c(c2-c2ccc(Cl)cc2)C(=O)c2ccccc2C3=O)cc1,/,-0.61
CC1CCCCN1c1nn2nnnc2c2ccccc12 (stereo not given),-0.7,-1.2
CCOC(=O)CSc1nc(-c2ccc3c(c2)OCO3)ccc1C#N,-0.9,112
O=C(Nc1ccc(Cl)cc1)c1snnc1-c1ccccc1,-0.2,-0.54
Fc1ccc(C2c3cccn3CCN2C(=S)Nc2cccc(F)c2)cc1 (stereo not given),-0.2,0.025
Cc1ccc(N=c2ssc3c2-c2ccc(C)cc2NC3(C)C)c(C)c1,/,-0.32
COc1ccc(/C(O)=C2\NS(=O)(=O)c3ccccc3C2=O)cc1OC,-0.5,-0.99

Bioassay records as filed in PubChem BioAssay.
